Bioassay records from PubChem.
VDR inh: blocks the human vitamin D receptor; VDR-SRC2-3 peptide fluorescence polarization, 2 h; Potency, µM, for the others: max response, negative = inhibition, most hits filed as inhibitors; 0.93% of 400,000 active; active means well fitted inhibition curve with a large enough effect; inconclusive means small, poorly fitted or top-dose-only effect, or another doubt; inactive means no such curve, though single readings can be large or run the other way; further: series mostly up to about 120 µM
Target sequence (P11473 whole entry, looked up): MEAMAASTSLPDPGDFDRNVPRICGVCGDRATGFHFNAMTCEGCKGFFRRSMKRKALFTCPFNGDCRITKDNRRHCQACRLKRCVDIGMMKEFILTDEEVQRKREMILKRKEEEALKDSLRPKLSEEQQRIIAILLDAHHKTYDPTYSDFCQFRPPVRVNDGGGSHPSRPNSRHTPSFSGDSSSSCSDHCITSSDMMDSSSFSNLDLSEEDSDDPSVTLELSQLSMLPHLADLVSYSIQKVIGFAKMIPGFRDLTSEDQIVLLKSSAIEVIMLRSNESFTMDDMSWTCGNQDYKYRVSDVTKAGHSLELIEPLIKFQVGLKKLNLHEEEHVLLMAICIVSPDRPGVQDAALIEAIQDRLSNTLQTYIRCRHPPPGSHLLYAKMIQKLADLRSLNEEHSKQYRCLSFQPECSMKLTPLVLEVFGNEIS
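FP read-out; VDR + SRC2-3 coactivator peptide; 23 nl compound by pintool; 2 h RT incubation; reagents held at 4 deg C, protected from light.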
An asterisk follows results filed as active; ? = inconclusive; & = joins results of further samples. On the % scale 0 is the no-effect control and ±100 the full control effect; potency means the concentration at half of the fitted maximal effect. The list is partial, so the mix of outcomes need not match the whole.

item | structure | VDR inh
1 | CN(C)c1ccc(/C=N/N(CCC(=O)NC(C)(C)C)C2=NS(=O)(=O)c3ccccc32)cc1 | -11%
2 | CCN1CCN(CCc2nc3cc(NC(=O)COc4ccc(Cl)cc4)ccc3n2C)CC1 | 1%
3 | COc1ccc(C(=O)CCC(C)(C)[N+](=O)[O-])cc1OC | -5%
4 | C=Cc1cccc(NC(=O)c2ccc(NC(=O)c3ccco3)cc2)c1 | 9%
5 | O=C(NC(Cc1ccccc1)C(=O)O)/C(=C\c1ccc(F)cc1)NC(=O)c1ccccc1 (stereo unspecified) | -10%
6 | O=C(O/N=C1\CCS(=O)(=O)c2sccc21)C1CC1 | 6%
7 | NC(=O)C1(Nc2ccc(C(=O)O)cc2)CCCC1 | -12%
8 | COc1ccc(C(=O)N(CCc2ccccc2)Cc2ccccc2)cc1S(=O)(=O)N1CCOCC1 | 12%
9 | COc1ccccc1C(=O)NCC(=O)OCC(=O)c1ccc(Cl)s1 | -15%
10 | O=C(c1ccc(Cl)cc1)C1CCCN(C(=O)c2csnn2)C1 (stereo unspecified) | 5%
11 | N#CC1=C(N)Oc2cc(N)ccc2C1c1ccccc1F (stereo unspecified) | 2%
12 | COc1ccc(OCC(=O)NNC(=O)C2CCCO2)cc1 (stereo unspecified) | -5%
13 | CCOc1ccccc1NC(=O)COC(=O)CN(C)S(=O)(=O)c1ccc(C)cc1 | ?
14 | CCC(C)c1ccccc1NC(=O)C(C)OC(=O)c1ccco1 (stereo unspecified) | -1%
15 | COc1ccc(N2CCN(S(=O)(=O)c3cc(C)ccc3OC)CC2)cc1 | 4%
16 | Cc1cccc(OCCn2c(CCCO)nc3ccccc32)c1 | -9%
17 | COc1cc(NC(=O)c2ccc(Br)cc2)c(OC)cc1NC(=O)c1ccccc1 | -6%
18 | CCOc1cc(C(=O)Nc2cccnc2)cc(OCC)c1OCC | 11%
19 | Cc1oc(-c2ccccc2)nc1CNS(=O)(=O)c1ccc(Cl)cc1 | 0%
20 | Cc1cc(C)nc(N/N=C/C(Cl)=C/c2ccccc2)n1 | -3%
21 | CCc1cc(Cl)c(OC)c(C(=O)NC[C@@H]2CCCN2CC)c1O | -18%&3%&-5%&-19%
22 | CC(=O)Nc1nc2c(s1)CCc1ccccc1-2 | 13%
23 | Nc1nc2c(s1)CCc1ccccc1-2 | ?
24 | Cc1csc2nc(-c3cccc(NC(=O)c4ccc(S(N)(=O)=O)cc4)c3)cn12 | -1%
25 | O=C(COc1ccc2ccccc2c1Br)Nn1cnnc1 | 2%
26 | Cc1ccc(S(=O)(=O)N2CCC(C(=O)Nc3ccc(S(=O)(=O)N4CCCC4)cc3)CC2)cc1C | -10%
27 | CCCC[C@H]1COCCS(=O)(=O)N1Cc1ccc(F)cc1 | -14%
28 | Cc1ccc(C(=O)N2CCCC(C(=O)c3ccc(Cl)cc3C)C2)cn1 (stereo unspecified) | -3%
29 | CC(C)c1ccc(NC(=O)COc2ccccc2)cc1 | -12%
30 | Cc1c(NC(=O)c2cc(-n3cnnc3)ccc2Cl)cccc1-c1nc2ccccc2o1 | -4%
31 | N#Cc1c(NC(=O)CSc2ncn(-c3ccccc3)n2)sc2c1CCCC2 | -4%
32 | Cc1cc(NC(=O)CN(c2cccc(C)c2C)S(=O)(=O)c2ccccc2)ccc1Br | -10%
33 | Cc1ccc(-c2nn(-c3ccccc3)cc2/C=N/NS(=O)(=O)c2ccccc2)cc1 | 13%
34 | CN1CCN(C(=O)/C(=C\c2cccc([N+](=O)[O-])c2)NC(=O)c2cccs2)CC1 | -7%
35 | c1ccc(OCCN2CCNCC2)cc1 | -12%
36 | Cc1nnc(SCC(=O)NCc2ccc3c(c2)OCO3)[nH]c1=O | -10%
37 | CCCOc1ccc(C2=NC(c3ccncc3)=Nc3ccc(C)cc3N2)cc1 | -7%
38 | COc1ccccc1NC(=O)CNC(=O)c1ccc(Br)o1 | ?
39 | CCC[C@@H](CN1CCC[C@H]1CN1C(N)=NC[C@H]1CC(C)C)N1C[C@@H](Cc2ccccc2)N(CCc2ccc(Cl)c(Cl)c2)C1=N | 8%
40 | CCOc1ccc(C(=O)NCC(=O)OCc2csc(-c3ccccc3)n2)cc1 | -9%
41 | O=C(Nc1cccc(C(F)(F)F)c1)/C(=C/c1ccco1)NC(=O)c1cccs1 | -9%
42 | CCCCn1c(N)c(N(C)C(=O)c2ccc(Br)o2)c(=O)[nH]c1=O | -6%
43 | COc1ccc(N2C(=O)C3C(C2=O)C(C(=O)c2ccc(Cl)cc2)N2CCCC32)cc1 (stereo unspecified) | -7%
44 | COc1cc(NC(=O)Nc2ccccc2OC)c(OC)cc1NC(=O)CN1CCCCC1 | 0%
45 | O=C(c1ccco1)N1CCN(C(=S)Nc2cccc([N+](=O)[O-])c2)CC1 | 7%
46 | O=C(Nc1ccc2[nH]c(=S)sc2c1)c1ccccc1 | ?
47 | Cc1cccc(C2CC3(CC(C)(C)NC(=S)N3)Oc3cc(O)ccc32)c1 (stereo unspecified) | 20%
48 | O=C(CC(c1cccs1)N1Cc2ccccc2C1=O)Nc1ccc(F)cc1F (stereo unspecified) | -11%
49 | COc1cccc(Cn2c(=O)c(-c3ccc(F)cc3)nc3cnc(OC)nc32)c1 | -7%
50 | Cc1nc(N2CCCC2)c2ccsc2n1 | -17%
51 | CCc1nc(Sc2nc(C)cc(C)n2)c2oc3ccccc3c2n1 | 2%
52 | COC(=O)c1nc2n(n1)C(c1cccc(Cl)c1)C1=C(CCCC1=O)N2 (stereo unspecified) | -6%
53 | Cn1cnnc1Sc1ccc(C(=O)OCC(=O)NC2CC2)cc1[N+](=O)[O-] | 11%
54 | COc1cccc(-c2nc3c(c(C)nn3-c3ccccc3)c3cc(OC)c(OC)cc23)c1 | 7%
55 | CCc1ccccc1NC(=O)CN(C)C(=O)Cn1ncc(Cl)c(Cl)c1=O | -24%
56 | O=C(NCCOc1nc(N2CCCCC2)nc(N2CCCCC2)n1)Nc1ccccc1 | -13%
57 | O=C(CN1CCCCCC1)Nc1ccccc1F | -6%
58 | COCCNC(=O)c1cccc(OC2CCN(Cc3ccc(C(C)C)cc3)CC2)c1 | -7%
59 | CCCC(=O)Nc1c(C)n[nH]c1C | -16%
60 | O=C(NC1=NCCS1)C1Cc2ccccc2CN1C(=O)c1ccccc1 (stereo unspecified) | -16%

Additional results follow.
item | structure | VDR inh
61 | Clc1cccc(N2CCN(c3ncnc4c3nc3n4CCCC3)CC2)c1 | -14%
62 | CCOc1ccc(NC(=O)CCNS(=O)(=O)c2ccc3c(c2)CCC(=O)N3)cc1 | -29%
63 | CCCC[C@H]1CCCO[C@@](C(=O)NCc2ccccn2)(C(F)(F)F)C1 | -12%
64 | Cc1cc(NS(=O)(=O)c2ccc(NC(=S)NC(=O)c3ccc(Br)cc3)cc2)no1 | -28%
65 | CN(C)c1ccc(Cc2cc3c(O)ccc(O)c3cc(Cc3ccc(N(C)C)cc3)c2=O)cc1 | 45µM*
66 | CSc1ccccc1OCc1cc(C(=O)N(C)Cc2cnccn2)no1 | -4%
67 | c1coc(CNc2nc[n+]3c4c2ncn4CC3)c1 | -15%
68 | CN(C)CC(=O)c1c[nH]c2ccccc12 | -2%
69 | O=c1cc(CN2CCN(Cc3ccccc3)CC2)c2ccc(O)cc2o1 | -15%
70 | O=C(N/N=C/c1cc(Cl)cc([N+](=O)[O-])c1O)NC12CC3CC(CC(C3)C1)C2 | -15%
71 | COC(=O)c1nn(-c2ccc(OC)cc2)c(=O)cc1NN | -7%
72 | CCOc1ccccc1NC(=O)Cn1c(=O)nc(-c2ccccc2F)c2cc(Cl)ccc21 | 1%
73 | Cc1ccc(NC(=S)NCc2ccc3c(c2)cc(C)n3C)c(C)c1 | ?
74 | O=C(NCCO)N1c2ccccc2Sc2ccccc21 | 12%
75 | CCC(=O)Nc1ccc(NC(=O)CSc2nnc(-c3ccc(O)cc3)n2CC2CCCO2)cc1 (stereo unspecified) | -14%
76 | CCN(CC)C(=O)CSc1nc2cccnc2n1-c1ccccc1OC | -1%
77 | Cc1cccc(C(=O)NCCc2nc3ccccc3n2Cc2ccccc2Cl)c1 | 5%
78 | Cc1cc2c(cc(C(=O)OC(C(=O)NCc3ccco3)C(C)C)n2C)o1 (stereo unspecified) | 9%
79 | CCOc1ccc(OCC)c(-n2cnnn2)c1 | -9%
80 | O=S(=O)(c1ccc(S(=O)(=O)N2CCC3(CC2)OCCO3)cc1)N1CCCC1 | 2%
81 | O=C(O)CCCC(=O)N1CCCC1 | 5%
82 | CC(=O)N1CCN(c2ccccc2NC(=O)COc2ccc(Cl)cc2Cl)CC1 | -4%
83 | C=CCn1c(SCCN2CCCC2)nc2c([nH]c3ccccc32)c1=O | 1%
84 | COC(=O)c1[nH]c2ccccc2c1NC(=O)CN1CCN(c2cccc(OC)c2)C(C)C1 (stereo unspecified) | 2%
85 | Oc1ccccc1C1=Nc2ccccc2N=C(c2ccco2)C1 | 13%
86 | Cc1ccc2c(CC(=O)OCc3cc(=O)n4c(n3)sc3ccccc34)coc2c1 | 5%
87 | CCSc1nc(C)cc(Oc2ccc(=O)n(C)n2)n1 | 4%
88 | COC(=O)c1sc2nc3c(cc2c1N)CCCC3 | 2%
89 | CN(C)c1ccc(/C=N/NC(=O)c2cccc(C(=O)N/N=C/c3ccc(N(C)C)cc3)n2)cc1 | -18%
90 | Cc1ccc(NC(=O)C(=O)NCC2CCCO2)cc1C (stereo unspecified) | -7%
91 | CCn1c(SCC(=O)Nc2cc(C)ccc2C)nc2c(c1=O)SC(C)C2 (stereo unspecified) | -7%
92 | O=C(CC1(C(F)(F)F)OCCO1)Nc1ccc2c(c1)OCO2 | -2%
93 | CS(=O)(=O)c1ccc2nc(NC(=O)CS(=O)(=O)Cc3ccccc3)sc2c1 | 15%
94 | Cc1ccc2nc(N/N=C/c3ccccc3C#N)nc(-c3ccccc3)c2c1 | -14%
95 | CCOC(=O)C1=C(C)NC2=C(C(=O)CCC2)C1c1ccc(O)c(OCC)c1 (stereo unspecified) | -6%
96 | COc1ccc2[nH]c(=O)c(CN(C)C(=O)c3cccs3)cc2c1 | 11%
97 | COc1ccc2c(c1)C(SCC(=O)NCCc1ccccc1)CC(C)(C)O2 (stereo unspecified) | -6%
98 | CCSc1nnc(Nc2ccccc2)s1 | 5%
99 | OCC1(Cc2ccccc2Cl)CCN(C/C=C/c2ccccc2)CC1 | -15%
100 | CC1Oc2ccccc2N(CC(=O)N2CCCC2)C1=O (stereo unspecified) | -3%
101 | CCOc1ccccc1CNc1ccc(N2CCOCC2)c(C(=O)O)c1 | -19%
102 | Nc1ccc(Cl)cc1C(=O)OCC(=O)NC1CCS(=O)(=O)C1 (stereo unspecified) | -5%
103 | CC1(C)CC(=O)C2=C(C1)NC(Nc1nc3ccccc3o1)=NC2c1cccc(F)c1 (stereo unspecified) | -12%
104 | Cc1ccc(-c2cnc(NCc3cc4c(cc3[N+](=O)[O-])OCO4)n2C)cc1C | -16%
105 | N=c1oc2ccccc2cc1C(=O)NCc1ccccc1 | -29%
106 | COc1ccc(/C=C2\SC(=N)N(c3ccc(F)cc3)C2=O)cc1OC | 4%
107 | COc1ccccc1Nc1nc(-c2ccc(F)cc2)c2c(n1)-c1ccccc1OC2 | 5%
108 | CCC(=O)Nc1ccc(NC(=O)c2ccco2)cc1 | -4%
109 | CC1CCc2c(nc3ncnn3c2N2CC(C)OC(C)C2)C1 (stereo unspecified) | -16%
110 | CCCN(CCC)Cc1c(C(=O)N/N=C/C(C)=C\c2ccco2)nnn1-c1nonc1N | 18%
111 | Cn1c(CCNC(=O)c2ccco2)nc2cc(NC(=O)C3CCCCC3)ccc21 | -14%
112 | CCC(=O)Nc1nc(-c2ccccc2)nc(SC)c1C(C)=O | -17%
113 | Cc1ccc(-n2nc(C)c3c(C)c(CCC(=O)NCc4ccccc4Cl)c(C)nc32)cc1C | -5%
114 | Cc1ccc(S(=O)(=O)NC(=O)N(C)C2CCCCC2)cc1 | 6%
115 | Cc1ccc(CSc2nnc(NC(=O)C3COc4ccccc4O3)s2)cc1 (stereo unspecified) | 0%
116 | CCCc1nnc(NC(=O)c2cc3ccccc3oc2=O)s1 | -1%
117 | CCOc1ccc(NC(=O)Cn2c(=O)n(CCCCC(=O)NCCc3ccc(Cl)cc3)c(=O)c3ccccc32)cc1 | -7%
118 | Cc1cnc(Sc2ncccc2[N+](=O)[O-])nc1 | -3%
119 | Cc1ccc(N=Nc2c(N)nn(-c3ccccc3)c2N)cc1 | 6%
